# YB-1 expression: YB-1 expression inhibition. U2OS, qRT-PCR YB-1 vs CDIP delta delta Cp, 16 h; hits give high values; zero = DMSO, each unit about twofold. hit rate 0.37% among 30,000. delta delta Cp (YB-1 minus CDIP) (no concentration beside the values);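 active means delta delta Cp rounded down to an integer at or above 3, about 3 SD of DMSO wells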;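 further: higher means less YB-1 transcript or more CDIP transcript relative to DMSO; stock transfer was 100 nL into about 100 µL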
# PD-1 reverse act: activators reversing PD-1 mediated T-cell inhibition | 29,000 tested, under 10 active | primary human CD4 T cells, PD-L1 beads, CellTiter-Glo 96 h | activation, % (no concentration beside the values);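 active means replicate mean of 50% or more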;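 further: 0% = median vehicle wells and 100% = positive control; 100 nL library stock added to about 50 µL; numbers are from one replicate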
# Hedgehog inh: Sonic Hedgehog pathway inhibition. Shh-LIGHT2 Gli-luciferase reporter, 30 h. inhibition, % (no concentration beside the values). hit rate 2.1% among 22,000;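 active means replicate mean of 65% or more; inconclusive means mean lower but half the replicates past it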;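 further: pathway switched on by Shh-conditioned medium diluted 1 in 25 in low serum; 100 nL library stock added to about 40 µL; 0% = median of neutral wells and 100% = positive control level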
# MITF inhib: inhibitors of MITF. TRPM1 promoter luciferase, luminescence, 24 h. inhibition, % (test concentration not listed). hit rate 0.28% among 37,000;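 active means most replicates at 85% or more, or half of them and the mean; inconclusive means half reach 85% but not the mean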;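 further: human melanocyte line stably carrying TRPM1 promoter luciferase reporter; 0% = vehicle wells and 100% = a positive control; the first replicate is given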
# Numbers without * were called inactive; ? = inconclusive; . = not tested or not shown. Not all compounds are listed, so the mix of outcomes need not match the whole.
SMILES,YB-1 expression,PD-1 reverse act,Hedgehog inh,MITF inhib
COc1ccc(NC(=O)Nc2ccc3c(c2)C(=O)N([C@@H](C)CO)C[C@H](C)[C@@H](CN(C)C(=O)Nc2ccc(C(F)(F)F)cc2)O3)cc1,0.15,0.6,-27,-4
C[C@H](CO)N1C[C@H](C)[C@H](CN(C)C(=O)Nc2ccc(C(F)(F)F)cc2)Oc2c(NS(=O)(=O)c3cn(C)cn3)cccc2C1=O,-0.55,-0.2,16,-10
O=C(NCc1ccco1)c1cccc(S(=O)(=O)N2CCCCCC2)c1,.,0.6,.,-7
CC(C)=CCc1c(O[C@@H]2O[C@H](CO)[C@@H](O)[C@H](O)[C@H]2O)cc(O)c2c1O[C@H](c1ccc(O)cc1)[C@@H](O)C2=O,-0.21,-0.8,-16,20
Cc1ccc(N/C(=N/C(N)=S)c2ccccc2)cc1,0.25,-1.9,-6,-25
COc1ccc(S(=O)(=O)Nc2ccc3c(c2)C(=O)N([C@H](C)CO)C[C@H](C)[C@@H](CN(C)CC2CC2)OCCCC[C@@H](C)O3)cc1,0.22,.,-34,-5
Cc1ccc(S(=O)(=O)N(C)C[C@H]2Oc3ccc(NC(=O)NC(C)C)cc3C(=O)N([C@H](C)CO)C[C@@H]2C)cc1,-0.019,0.5,.,-5
C[C@@H]1CN([C@H](C)CO)C(=O)c2cc(NS(=O)(=O)c3ccc(F)cc3)ccc2O[C@H]1CN(C)Cc1ccc2c(c1)OCO2,0.34,.,.,-15
CCc1nc2c(cnn2-c2ccccc2)c(=O)n1CCc1ccccc1,0.49,-0.6,-13,13
CS/C(Nc1cccc(Cl)c1Cl)=C(/C#N)C(=O)c1cccs1,0.25,-0.4,-192,-6
C[C@@H]1CN([C@H](C)CO)C(=O)c2cc(NS(=O)(=O)c3ccc(Cl)cc3)ccc2O[C@H]1CN(C)C(=O)NC1CCCCC1,0.32,0.7,.,-3
CC(C)NC(=O)N(C)C[C@H]1Oc2c(NC(=O)NC3CCCCC3)cccc2C(=O)N([C@@H](C)CO)C[C@H]1C,0.45,1.0,-7,2
COc1cc(/C=C2\Oc3cc(O)cc(O)c3C2=O)ccc1O,-0.066,2.0,3,42
C[C@@H]1CN([C@H](C)CO)C(=O)c2cccc(NC(=O)c3cnccn3)c2O[C@@H]1CN(C)Cc1ccc(Oc2ccccc2)cc1,-0.096,.,-2,-16
COc1cccc(NC(=O)C(C)NS(=O)(=O)c2ccc(Br)cc2)c1 (stereo not drawn),.,0.3,.,14
C[C@@H]1CN([C@H](C)CO)C(=O)Cc2cc(NS(=O)(=O)c3ccc(Cl)cc3)ccc2O[C@@H]1CN(C)CC1CC1,0.23,.,-8,5
COc1ccc(CN(C)C[C@H]2Oc3ccc(NC(=O)NC(C)C)cc3C(=O)N([C@H](C)CO)C[C@@H]2C)cc1,-0.033,-0.1,2,3
CNC[C@H]1Oc2ccc(NS(=O)(=O)c3cn(C)cn3)cc2CC(=O)N([C@H](C)CO)C[C@H]1C,-0.38,1.7,-26,4
COc1ccc(NC(=O)CSc2nc3c(c(C(F)(F)F)n2)CCCC3)c([N+](=O)[O-])c1,.,0.8,.,21
O=[N+]([O-])c1cc(C(F)(F)F)ccc1NCCNS(=O)(=O)c1ccc(Br)cc1,.,-8.0,.,11
COc1ccc(CN(C)C[C@H]2Oc3c(NC(=O)Nc4ccccc4)cccc3C(=O)N([C@@H](C)CO)C[C@H]2C)cc1,-0.071,.,-9,-14
C[C@@H]1CN([C@H](C)CO)C(=O)c2cc(NC(=O)Cc3ccccc3)ccc2O[C@H]1CN(C)CC1CC1,0.21,0.9,4,1
Cc1cc(C)nc(S/C=C/C(=O)c2ccc(Cl)cc2)n1,0.23,-1.5,-18,0
CNC(=O)CN(c1ccccc1C)S(=O)(=O)c1ccc(C)cc1,.,0.1,.,5
C[C@@H]1CN([C@H](C)CO)C(=O)Cc2cc(NC(=O)C3CC3)ccc2O[C@H]1CN(C)S(=O)(=O)c1ccccc1,0.31,0.4,-14,-7
C[C@@H]1CN([C@@H](C)CO)C(=O)Cc2cc(NS(=O)(=O)c3ccccc3)ccc2O[C@@H]1CN(C)Cc1ccc(-c2ccccc2)cc1,-0.14,-3.7,-6,0
C=CCNC(=O)CSc1ncc2c(n1)-c1c(csc1SC)CC2,0.46,-0.2,19,-4
Cc1ccc(S(=O)(=O)N(C)C[C@H]2Oc3c(NS(=O)(=O)c4ccc(F)cc4)cccc3C(=O)N([C@@H](C)CO)C[C@H]2C)cc1,0.74,.,-6,-2
COc1cc(S(=O)(=O)n2nc(C)cc2C)c(OC)cc1Cl,.,2.2,.,5
C[C@@H]1CN([C@H](C)CO)C(=O)c2cc(NS(=O)(=O)c3ccc(F)cc3)ccc2O[C@@H]1CN(C)Cc1ccc(-c2ccccc2)cc1,0.11,-0.5,.,5
C[C@@H]1CN([C@@H](C)CO)C(=O)c2cc(NC(=O)Nc3cccc4ccccc34)ccc2O[C@H]1CN(C)Cc1ccc(Oc2ccccc2)cc1,-0.21,-1.0,-32,2
C[C@H]1CN([C@@H](C)CO)C(=O)Cc2cc(NC(=O)CCN3CCOCC3)ccc2O[C@@H]1CN(C)CC1CCCCC1,0.23,1.3,?,3
C[C@H](CO)N1C[C@H](C)[C@@H](CN(C)C)Oc2c(NS(C)(=O)=O)cccc2C1=O,0.19,3.1,-8,-5
N#CC1=C(SCC(=O)c2ccc(F)cc2)NC2(CCCC2)C(C#N)C1=O (stereo not drawn),-0.059,-0.8,26,15
C[C@H]1CN([C@@H](C)CO)C(=O)c2cc(NS(=O)(=O)c3cn(C)cn3)ccc2O[C@H]1CN(C)S(=O)(=O)c1cccs1,-0.52,-0.1,16,5
C[C@H]1CN([C@@H](C)CO)C(=O)c2cc(NS(=O)(=O)c3ccc(F)cc3)ccc2O[C@@H]1CN(C)C(=O)Nc1ccc2c(c1)OCO2,0.075,1.2,.,11
CCc1cccc(C)c1NC(=O)CSc1nnc(-c2ccc(OC)cc2)n1C,.,0.9,.,4
COc1ccc(C2OC(=O)c3ccccc3S2)cc1 (stereo not drawn),0.18,0.5,-14,1
COC(=O)c1c(NC(=S)Nc2ccc(S(=O)(=O)NC34CC5CC(CC(C5)C3)C4)cc2)sc(C(=O)N(C)C)c1C,.,-0.4,.,-14
CS(=O)(=O)Nc1ccc(C(=O)NCc2ccccn2)cc1,.,-0.1,.,-2
CCOC(=O)CCSc1n[nH]c(=S)s1,0.029,1.3,14,-2
Nc1nc(Cc2ccc(F)cc2F)no1,-0.019,0.8,-3,12
C[C@@H]1CCCCO[C@H](CN(C)C(=O)c2ccccc2)[C@@H](C)CN([C@H](C)CO)C(=O)c2cc(N(C)C)ccc2O1,0.028,-1.1,4,-4
CNC[C@@H]1Oc2c(NS(=O)(=O)c3ccccc3)cccc2C(=O)N([C@H](C)CO)C[C@H]1C,-0.27,2.0,-2,-4
COc1ccc(NC(=O)N(C)C[C@H]2Oc3ccc(NC(=O)Cn4cnnn4)cc3C(=O)N([C@@H](C)CO)C[C@@H]2C)cc1,0.18,-0.3,.,-5
CCc1ccccc1NC(=O)CSc1nc2ccccc2c(=O)n1-c1ccccc1Cl,.,2.8,.,-10
Cc1noc(C)c1S(=O)(=O)N(C)C[C@@H]1Oc2ccc(NC(=O)Nc3ccccc3)cc2CC(=O)N([C@@H](C)CO)C[C@@H]1C,-0.72,-1.3,-11,-10
COC(=O)C1=C(C)NC(C)=C(C(=O)OC)C1,-0.075,-1.2,-16,-4
C[C@@H]1CN([C@@H](C)CO)C(=O)c2cccc(NC(=O)Nc3ccc(F)cc3)c2O[C@@H]1CN(C)Cc1ccc(-c2ccccc2)cc1,-0.031,-1.0,-22,6
C[C@@H]1CCCCO[C@@H](CN(C)C(=O)Cc2ccccc2)[C@@H](C)CN([C@H](C)CO)C(=O)c2cc(NC(=O)NC3CCCCC3)ccc2O1,-0.24,-0.3,.,6

# Single records, from the list above. Order of screens: YB-1 expression	PD-1 reverse act	Hedgehog inh	MITF inhib
# CCOC(=O)CCSc1n[nH]c(=S)s1 is entered as 0.029	1.3	14	-2
# CCc1ccccc1NC(=O)CSc1nc2ccccc2c(=O)n1-c1ccccc1Cl is entered as .	2.8	.	-10
# C[C@@H]1CN([C@@H](C)CO)C(=O)c2cccc(NC(=O)Nc3ccc(F)cc3)c2O[C@@H]1CN(C)Cc1ccc(-c2ccccc2)cc1 is entered as -0.031	-1.0	-22	6
# Nc1nc(Cc2ccc(F)cc2F)no1 is entered as -0.019	0.8	-3	12
# Cc1noc(C)c1S(=O)(=O)N(C)C[C@@H]1Oc2ccc(NC(=O)Nc3ccccc3)cc2CC(=O)N([C@@H](C)CO)C[C@@H]1C is entered as -0.72	-1.3	-11	-10

# Rewritten tab-delimited: entries from further up
molecule	YB-1 expression	PD-1 reverse act	Hedgehog inh	MITF inhib
CCOC(=O)CCSc1n[nH]c(=S)s1	0.029	1.3	14	-2
Nc1nc(Cc2ccc(F)cc2F)no1	-0.019	0.8	-3	12

# (list continues)
SMILES,YB-1 expression,PD-1 reverse act,Hedgehog inh,MITF inhib
Cc1ccc(C(=O)CSc2ncnc3sc4c(c23)CCC4)cc1C,.,-1.5,.,-22
C[C@@H]1CCCCO[C@H](CN(C)C(=O)Nc2ccc(C(F)(F)F)cc2)[C@@H](C)CN([C@H](C)CO)C(=O)c2cc(NC(=O)Nc3ccc(C(F)(F)F)cc3)ccc2O1,-0.1,.,?,-16
C[C@@H]1CN([C@H](C)CO)C(=O)c2cc(NC(=O)Nc3cccc4ccccc34)ccc2O[C@H]1CN(C)C(=O)Nc1ccc(F)cc1,0.033,-0.6,-21,-5
CS(=O)(=O)N(CC(=O)Nc1ccc(Cl)cc1)c1ccc(F)c(Cl)c1,.,-5.5,.,22
Cc1cc(NC(=O)C2CC(c3c(F)cccc3Cl)=NO2)n(-c2ccccc2)n1 (stereo not drawn),.,0.5,.,7
C[C@@H]1CN([C@H](C)CO)C(=O)Cc2cc(NC(=O)CCC(F)(F)F)ccc2O[C@H]1CN(C)S(=O)(=O)c1ccc(F)cc1,-0.07,.,16,-3
Cc1ccc(S(=O)(=O)N(C)C[C@@H]2OCCCC[C@@H](C)Oc3ccc(NS(=O)(=O)c4cccs4)cc3C(=O)N([C@H](C)CO)C[C@@H]2C)cc1,0.22,-4.3,11,19
Cc1nc(SCc2csc(C)n2)c2c3c(sc2n1)CCCC3,.,-4.1,.,-23
CCOC(=O)c1c(NC(=O)C(C)n2nc([N+](=O)[O-])c(Br)c2C)sc2c1CCC2 (stereo not drawn),.,-1.3,.,3
Cc1ccc(-c2nc3ccccc3s2)cc1NC(=O)COc1ccc([N+](=O)[O-])cc1,.,2.2,.,-8
Cc1ccc([N+](=O)[O-])cc1NC(=O)CSc1nnnn1-c1ccccc1,.,1.0,.,-15
C[C@@H]1CN([C@H](C)CO)C(=O)Cc2cc(NC(=O)C3CC3)ccc2O[C@H]1CN(C)Cc1ccc(-c2ccccc2)cc1,-0.31,.,-13,3
COc1cc(C2c3c(cc(OC)c(O)c3OC)CC(CO[C@@H]3O[C@H](CO)[C@@H](O)[C@H](O)[C@H]3O)C2CO)cc(OC)c1O (stereo partly drawn),-0.11,3.2,-23,6
CNC[C@H]1Oc2ccc(NS(=O)(=O)c3ccc(F)cc3)cc2C(=O)N([C@@H](C)CO)C[C@H]1C,-0.18,2.0,21,3
COc1ccc(S(=O)(=O)N(C)C[C@H]2Oc3ccc(NC(=O)Nc4ccccc4)cc3C(=O)N([C@@H](C)CO)C[C@H]2C)cc1,-0.88,1.5,-3,-8
CN1CCC2(CC1)C(C#N)=C(N)Oc1n[nH]c(C(=O)OC(C)(C)C)c12,-0.31,0.1,19,-7
O=C(Nc1ccccc1C(=O)O)c1cc(S(=O)(=O)Nc2cccc(F)c2)ccc1Cl,.,1.8,.,1
COC(=O)c1c(NC(=O)c2cc3ccccc3oc2=O)sc2c1C(C(=O)OC)CC2 (stereo not drawn),.,4.6,.,-41
Cc1noc(C)c1NC(=O)Nc1cccc2c1O[C@H](CN(C)C(=O)Nc1cccc3ccccc13)[C@H](C)CN([C@@H](C)CO)C2=O,0.41,-0.1,9,6
C[C@@H]1CN([C@@H](C)CO)C(=O)c2cccc(NS(=O)(=O)c3ccccc3)c2O[C@H]1CN(C)CC1CC1,0.043,.,-33,0
COc1ccc(C)cc1S(=O)(=O)N(C)CC(=O)NC1CC1,.,0.6,.,-14
O=C(CCc1ccccc1)CC(CCc1ccccc1)OC1OC(COC2OC(CO)C(O)C(O)C2O)C(O)C(O)C1O (stereo not drawn),0.37,.,-6,.
C[C@H]1CN([C@@H](C)CO)C(=O)c2cccc(NC(=O)c3nc4ccccc4s3)c2O[C@@H]1CN(C)Cc1ccc(C(=O)O)cc1,-0.5,0.3,-15,5
C[C@@H]1CN([C@H](C)CO)C(=O)c2cc(NC(=O)Nc3ccc(F)cc3)ccc2O[C@H]1CN(C)C(=O)NC1CCCCC1,-0.094,-0.4,.,3
CNC[C@H]1Oc2ccc(NC(=O)Nc3cccc4ccccc34)cc2C(=O)N([C@H](C)CO)C[C@H]1C,0.11,.,-6,2
